Cruzain inh Det: inhibitors of Trypanosoma cruzi cruzain with detergent; P25779; purified cruzain, Z-FR-AMC fluorescence, 0.01% Triton; Potency, µM, inactives show max response, negative = inhibition, hits mostly inhibitors; 200,000 compounds, 0.43% hits;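 further: plate controls were neutral wells for no effect and buffer without enzyme for full effect; nearly all actives have a fitted effect of over 40% in size; top concentration of the series not given in the record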
Target sequence (P25779 123-467 limits assumed): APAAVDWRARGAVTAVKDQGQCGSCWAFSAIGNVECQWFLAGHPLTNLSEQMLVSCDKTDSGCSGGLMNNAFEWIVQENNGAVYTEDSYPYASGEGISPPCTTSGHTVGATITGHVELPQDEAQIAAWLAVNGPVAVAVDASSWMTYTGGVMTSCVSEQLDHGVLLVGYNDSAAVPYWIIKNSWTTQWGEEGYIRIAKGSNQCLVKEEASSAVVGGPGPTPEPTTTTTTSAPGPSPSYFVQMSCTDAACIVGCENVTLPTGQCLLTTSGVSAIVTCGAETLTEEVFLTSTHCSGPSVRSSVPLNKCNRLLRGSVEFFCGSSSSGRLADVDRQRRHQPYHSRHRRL
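15 min RT preincubation of 1.5 nM cruzain with compound, then 2 uM Z-FR-AMC added; kinetic AMC fluorescence, 60 s delta. Triton X-100 0.01%, pH 5.5.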
MARV entry inh: inhibitors of Marburg virus binding or cell entry. Marburg virus pseudotyped entry inhibition, cell reporter; control for the full effect not named in the record; about a third of the inactives were read at about 46 µM. Potency, µM (top dose mostly 37.8 µM), for inactives: top-dose activity change, negative = inhibition, actives largely listed as inhibitors. 300,000 compounds, 1.8% hits. AID 540276; active = well fitted inhibition curve with a large enough effect; inconclusive = small, poorly fitted or top-dose-only effect, or effect the other way; inactive = flat fitted curve, though single readings scatter; tested in HEK293 cells; about a fifth of its hits are not listed in these tables; further: on the % scale 0 is the no-effect control and ±100 the full control effect; luciferase read-out
Lassa entry inh: blocks Lassa virus binding to or entry into cells | Lassa virus pseudotype entry inhibition, cell reporter; control for the full effect not named in the record | Potency, µM (top dose mostly 37.9 µM), inactives show at the top dose activity change, negative = inhibition, usual class: inhibitors | 300,000 compounds, 1.2% hits | AID 540256; active means well fitted inhibition curve with a large enough effect; inconclusive means small, poorly fitted or top-dose-only effect, or effect the other way; inactive means flat fitted curve, though single readings scatter; tested in HEK293 cells; further: on the % scale 0 is the no-effect control and ±100 the full control effect; nearly all actives have a fitted effect of over 50% in size; luciferase read-out
2A StopGo: FMDV 2A StopGo reporter, luciferase signal; human cells with a luciferase reporter of 2A StopGo recoding; control for the full effect not named in the record; Potency, µM (top dose mostly 57.9 µM), for inactives: at the highest dose signal change, negative = less light; 410,000 compounds, 1.2% hits; active = well fitted falling curve with a large enough effect; inconclusive = small, poorly fitted or top-dose-only effect; inactive = no such curve, though single readings can be large or run the other way; tested in HEK293T cells; further: on the % scale 0 is the no-effect control and ±100 the full control effect; nearly all actives have a fitted effect of over 45% in size; luciferase light after 4 h
RE007 growth inh: less growth of the S. pombe RE007 Vpr strain | 360,000 compounds, 0.21% hits | S. pombe RE007 Vpr strain, BacTiter-Glo ATP luminescence, 24 h; control for the full effect not named in the record | Potency, µM (doses to about 92.2 µM), for the others: top-dose activity change, negative = less growth | AID 651644; active = well fitted falling curve with a large enough effect; inconclusive = small, poorly fitted or top-dose-only effect; inactive = no such curve, though single readings can be large or run the other way;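 further: on the % scale 0 is the no-effect control and ±100 the full control effect; nearly all actives have a fitted effect of over 50% in size; the assay follows cell death caused by Vpr and the record does not say whether a fall means rescue or toxicity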
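Fission yeast strain RE007, carrying one chromosomally integrated HIV-1 vpr copy, was seeded at OD 0.01 in PMG+AL medium with 23 nL pinned compound. After 24 h at 30 °C and 99% humidity, viability was read by BacTiter-Glo luminescence.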
SARS PLP yeast: blocks SARS-CoV papain-like protease in a yeast assay. 330,000 compounds, 0.19% hits. AID 485353. Potency, µM (series often up to 32.9 µM), for inactives: at the highest dose activity, positive = growth rescue. S. cerevisiae expressing SARS-CoV PLpro, growth rescue; control for the full effect not named in the record; active means well fitted rising curve with a large enough effect; inconclusive means small, poorly fitted or top-dose-only effect; inactive means no such curve, though single readings can be large or run the other way; further: 0% is about no effect; nearly all actives have a fitted effect of over 55% in size; growth read by luminescence after 48 h
NS1 inh: inhibitors of influenza NS1 protein function | 270,000 compounds, 0.4% hits | AID 2326 | Potency, µM (series often up to 46.1 µM), without a hit: at the top dose activity, positive = more growth | S. cerevisiae slowed by influenza A NS1, growth recovery by OD600; active means well fitted rising curve with a large enough effect; inconclusive means small, poorly fitted or top-dose-only effect; inactive means no such curve, though single readings can be large or run the other way; further: nearly all actives have a fitted effect of over 50% in size
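Recovery from NS1-induced slow growth read by OD600 in budding yeast switched to galactose assay medium (pH 6.0, -URA) at 1:100 dilution. Compound 23 nl per well; the matching strain lacking NS1 serves as control.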
Cruzain inh noDet: inhibitors of Trypanosoma cruzi cruzain without detergent. 200,000 compounds, 2.3% hits. purified cruzain, Z-FR-AMC fluorescence, no detergent. Potency, µM, inactives show max response, negative = inhibition, most hits filed as inhibitors. P25779;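 further: plate controls were enzyme without inhibitor for no effect and buffer without enzyme for full effect; nearly all actives have a fitted effect of over 40% in size; top concentration of the series not given in the record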
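Purified cruzain at 1.5 nM, pre-incubated 15 min with compound at room temperature in 100 mM sodium acetate pH 5.5, 5 mM DTT, 0.00005% Triton X-100. Reaction started with 2 uM Z-FR-AMC; AMC fluorescence increase over 60 s gives rate.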
An asterisk follows results filed as active; ? = inconclusive; . = no result given; & = joins results of further samples; [ ] = another dose, or the depositor's remark. Unless noted, the call rests on the fitted dose curve; in most records, active means well fitted curve in the direction sought with a large enough effect; inconclusive means small, poorly fitted or top-dose-only effect, or another doubt; inactive means no such curve, though single readings can be large; an effect the other way counts as inactive or inconclusive. Potency means the concentration at half of the fitted maximal effect.

SMILES	Cruzain inh Det	MARV entry inh	Lassa entry inh	2A StopGo	RE007 growth inh	SARS PLP yeast	NS1 inh	Cruzain inh noDet
O=C1c2cccc3cccc(c23)C(=O)N1CCN1CCN(CC(O)COCc2ccc(Cl)cc2)CC1 (stereo not given)	-11.3%	?	18.4µM*	?	9.6%	-26.0%	-14.5%	15.6%
CCOC(=O)c1c(NC(=O)Cn2nnc(-c3ccc(Cl)cc3)n2)sc(CC)c1C	1.8%	-13.6%	36.2%	-14.0%	-0.3%	6.5%	0.9%	-28.4%
CCN(c1cccc(C)c1)S(=O)(=O)c1c(C)nc2sc(C)cn2c1=O	-1.6%	.	3.3%[46.1 µM]	-19.0%	.	.	.	7.7%
[N-]=[N+]=CC(=O)c1ccnc(C(=O)C=[N+]=[N-])c1	-8.0%	4.2%&4.2%	-3.3%	-2.2%	-0.4%	-0.8%	-6.8%	-2.7%
CCOc1ccccc1NC(=O)c1cnc2n(c1=O)CCS2	-1.5%	26.9%	4.3%	10.1%	25.5%	1.3%	-13.9%	-1.6%
N/C(=N\OC(=O)COc1ccccc1)c1ccc(Cl)cc1	3.6%	9.6%	-0.2%	4.1%	21.8%	27.6%	-13.4%	8.1%
CCOC(=O)CSc1nnc2cc(C)c3ccccc3n12	-3.7%	-10.5%	7.2%	-12.4%	-7.4%	-25.1%	-2.7%	-16.1%
COc1cccc(CNC(=O)Cn2cc3c(n2)-c2c(oc(C(=O)N4CCOCC4)c2C)CC3)c1	-0.5%	.	-1.6%[46.1 µM]	?	.	.	.	5.8%
CCn1cc(C(=O)NCCCN2CCC(C)CC2)c2cc(OC)c(OC)cc2c1=O	-2.7%	.	.	-4.2%	-10.0%	-13.6%	1.1%	0.0%
CN(CCCC1CCCC1)C(=O)c1cc(COc2ccc(F)cc2F)on1	.	-1.8%	?	23.6%	3.4%	-2.1%	-8.2%	.
CN(C)CCNc1ncnc2sc(-c3ccccc3)cc12	.	?	?	9.2%	-11.7%	-0.5%	6.7%	.
Cn1c(SCC(=O)NCC2COc3ccccc3O2)nnc1C(F)(F)F (stereo not given)	.	16.5%	-6.6%	-8.7%	6.0%	27.1%	.	.
Cc1ccc(NC(=O)CN2CCSc3ccc(S(=O)(=O)N4CCCC4)cc32)cc1	-10.4%	.	-19.9%[46.1 µM]	0.0%	.	.	.	-3.2%
Cc1ccc(-c2[nH]c(-c3ccccc3)nc2SCC(=O)NCC2CCCO2)cc1 (stereo not given)	-6.8%&-3.4%	?	-22.2%[46.1 µM]	25.2%&-23.1%	8.8%	16.7%	-46.3%	-1.0%&-2.6%
O=C(/C=C/c1cccc(Cl)c1)NCc1cccs1	-5.7%	4.1%	?	71.5%[activator]	-10.7%	-8.9%	-24.7%	-2.1%
O=C(NNC(=O)c1cccs1)c1ccc([N+](=O)[O-])cc1	.	0.0%[46.1 µM]	0.4%	62.5%[activator]	5.9%	6.9%	.	.
Cc1ccc(Nc2cc(-n3nc(C)cc3C)ncn2)cc1	1.0%	-1.6%	-10.5%	23.5%	-0.4%	-1.1%	-6.6%	13.4%
COc1cccc(NC(=O)c2nnn(Cc3ccc(OC)c(Br)c3)c2N)c1	-1.8%	-6.7%[46.1 µM]	-7.3%[46.1 µM]	4.5%	.	.	.	-4.5%
CN1c2ccccc2-c2nc3ccccc3n2C1c1ccco1 (stereo not given)	?	?	-11.4%	?	-1.2%	-22.5%	-259.3%	-2.4%
Cc1ccc(NC(=O)CN2C(=O)c3ccccc3C2=O)nc1	.	-0.8%[46.1 µM]	-0.9%	2.8%	5.9%	0.7%	5.3%	.
COc1ccc2c(CNCc3cccs3)c(C(=O)O)n(Cc3ccc(F)cc3)c2c1	-6.5%	.	-26.3%[46.1 µM]	-10.6%	.	.	.	-8.1%
CCc1ccc(N2C(=O)c3sc4nnc(-c5ccccc5)c(=O)n4c3C2=O)cc1	-8.3%	0.0%	-1.5%	0.0%	-18.4%	-3.0%	4.7%	?
Cc1cc(C#Cc2c(-c3ccccc3)n(C)c3ccccc23)ccc1F	.	.	.	-9.4%	-14.3%	-14.3%	14.0%	.
COc1cccc(CNC(=O)C2CCCN2S(=O)(=O)c2ccc3c(c2)C(C)(C)C(=O)N3C)c1 (stereo not given)	.	.	.	-6.7%	-6.3%	-4.8%	-28.5%	.
Cc1nc2c3ccccc3n(Cc3ccccc3F)c2s1	-10.8%	18.2%	5.3%	-15.1%	7.9%	-23.7%	-22.5%	-20.0%

The list goes on:
SMILES	Cruzain inh Det	MARV entry inh	Lassa entry inh	2A StopGo	RE007 growth inh	SARS PLP yeast	NS1 inh	Cruzain inh noDet
Cc1ccc(S(=O)(=O)N2CCOCC2)cc1C(=O)NC(=S)N1CC(C)OC(C)C1 (stereo not given)	.	.	.	0.0%	10.2%	-0.4%	-7.2%	.
CCCCC1CCC(C(=O)Nc2ccccc2)CC1 (stereo not given)	-2.6%	7.1%	?	18.7%	13.9%	-11.0%	3.1%	?
CC(=O)O[C@H]1[C@H](C)OC=C[C@@H]1OC(C)=O	.	.	.	-21.0%	14.7%	6.6%	12.2%	.
O=C(O)C1CC=CCC1C(=O)NNc1ccccc1 (stereo not given)	.	-9.4%[46.1 µM]	-15.6%	-3.7%	325.3%	0.2%	.	.
C(=N\C(/N=C/c1ccco1)c1ccco1)/c1ccco1	-0.9%	16.7%	16.2%	19.2%	-16.7%	2.4%	0.5%	1.4%
CCc1nnc(NC(=O)C2CC(=O)N(CCc3ccccc3)C2)s1 (stereo not given)	4.1%	-3.8%	10.7%	13.5%	-2.9%	7.2%	3.8%	7.9%
COc1cc(C(=O)Nc2ccccc2NC(=O)c2cc(OC)c(OC)c(OC)c2)cc(OC)c1OC	.	.	.	-12.8%	0.7%	1.4%	-0.6%	.
CCCn1c(=O)[nH]c(=O)c2c1nc(-c1cccs1)n2CCOC	.	-2.0%[46.1 µM]	.	-11.7%	4.0%	-4.3%	5.2%	.
Cc1ccc(C(=O)Nc2ccc(NC(=O)c3cccs3)cc2)c(C)c1	.	-1.4%[46.1 µM]	-6.7%	-11.3%	-2.4%	1.3%	3.2%	.
CC1CCN(S(=O)(=O)c2ccc(S(=O)(=O)NCC(=O)C(C)(C)C)cc2)CC1	2.0%	-0.5%	18.3%	.	-6.1%	-1.5%	-0.1%	-17.8%
Cc1cc(NC(=O)CN2C(=O)CC(c3ccco3)Sc3ccccc32)no1 (stereo not given)	-9.8%	.	.	-2.4%	-1.7%	21.9%	?	-19.9%
O=c1[nH]c2cc3c(cc2cc1CN(CCO)S(=O)(=O)c1ccccc1Cl)OCCO3	-4.2%	-19.2%	-0.3%	-10.9%	-0.1%	22.5%[6.58 µM]	-9.1%	0.7%
CCC(CC)=C(C#N)C(=O)NC1CCCCC1	-1.3%	?	-0.9%	-4.2%	-1.5%	18.9%	5.9%	0.6%
COc1cc(C=C(c2nc3ccccc3s2)c2nc3ccccc3s2)cc(OC)c1O	-5.3%	13.3%	-9.2%	-11.9%	-25.9%	-54.1%	9.1%	3.7%
CC(C)Oc1cccc(C(=O)NC2=NCCS2)c1	.	-14.0%	-28.6%	91.9%[activator]	-6.9%	-24.0%	.	.
Cc1ccccc1NC(=S)N1CCC(C(=O)c2ccc(F)cc2)CC1	3.2%	12.7%	-22.7%	.	14.3%	-2.0%	24.6%	-4.7%
Cc1cc(NC(=O)CSc2ncc(C(F)(F)F)cc2Cl)no1	.	8.9%[46.1 µM]	16.0%[46.1 µM]	9.2%	-13.1%	5.0%	.	.
COc1ccc(N(CC(=O)NC2CCCCC2)C(=O)CCCC(=O)Nc2ccccn2)c(OC)c1	1.1%	-15.6%&-15.6%	15.0%	32.8%[activator]	10.9%	-7.2%	-6.2%	4.0%
N=C(N=C(N)N)N1CCc2ccccc21	.	3.1%[46.1 µM]	.	-5.9%	6.8%	-0.7%	-0.1%	.
CCOc1ccccc1C(=O)N(Cc1cccs1)c1ccc(Cl)cc1	-6.4%	-27.6%[46.1 µM]	-2.6%[46.1 µM]	0.0%	.	.	.	-2.5%
CC(O)(CS(=O)(=O)Cc1ccccc1)c1ccccc1Cl (stereo not given)	.	.	.	-5.0%	-1.4%	2.8%	-1.8%	.
CCc1cc(CNC(=O)CC2C(=O)NCCN2Cc2cccc(OC)c2)on1 (stereo not given)	.	.	.	-20.6%	7.3%	-0.6%	3.1%	.
CCCCC(C(=O)O)C(C)CC(=O)NNC(=O)c1ccco1 (stereo not given)	.	11.7%[46.1 µM]	-0.4%	-12.4%	-6.6%	0.2%	2.3%	.
O=C(CN1C(=O)CC(c2ccc(F)cc2)=Nc2ccccc21)NCc1ccccc1Cl	-2.3%	.	1.3%[46.1 µM]	5.0%	.	.	.	-11.6%
O=[N+]([O-])c1ccc2c(c1)oc1ccccc12	4.5%	-16.5%	-5.3%	-13.1%	-13.6%	-2.8%	-8.1%	?
CCS(=O)(=O)N1CCC(C(=O)Oc2ccccc2Cl)CC1	.	.	.	-4.0%	-6.3%	3.2%	-5.3%	.

Retrieved by structure from the entries so far:
SMILES	Cruzain inh Det	MARV entry inh	Lassa entry inh	2A StopGo	RE007 growth inh	SARS PLP yeast	NS1 inh	Cruzain inh noDet
Cc1ccc(C(=O)Nc2ccc(NC(=O)c3cccs3)cc2)c(C)c1	.	-1.4%[46.1 µM]	-6.7%	-11.3%	-2.4%	1.3%	3.2%	.
CC(=O)O[C@H]1[C@H](C)OC=C[C@@H]1OC(C)=O	.	.	.	-21.0%	14.7%	6.6%	12.2%	.
Cc1cc(C#Cc2c(-c3ccccc3)n(C)c3ccccc23)ccc1F	.	.	.	-9.4%	-14.3%	-14.3%	14.0%	.
